NPYLR7 agonist: mosquito NPYLR7 agonism. HEK293T NPYLR7/Galpha15, GCaMP6s calcium fluorescence. activation, % at 10 µM. actives 0.15% (n = 270,000); in the data active = activation above about 40%;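 note: 0% = vehicle and 100% = reference agonist at the receptor; some compounds past the cut are filed as inactive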
NPYLR7 agonist max-min: second read-out of NPYLR7 agonist, no call of its own (marks repeat the call); activation, %; measured here: Max-Min RFU normalised activation; some inactives read as strong as hits;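 span of the calcium signal over five minutes; 0% = vehicle and 100% = native peptide agonist; compound fluorescence can raise it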
* hit, by the source's call; & = joins results of further samples. Some of the compounds tested; the hit share may differ from the screen's.

SMILES,NPYLR7 agonist,NPYLR7 agonist max-min
CC(C)(C)c1ccc(Cn2nc(C(=O)N3CCN(C(=O)C4CCCO4)CC3)c3ccccc32)cc1 (stereo not given),4,14
Oc1cccc(CN2C[C@@H](c3ccccc3)[C@@H]3[C@H]2C2CCN3CC2)c1,7,4
CC(=O)NS(=O)(=O)c1ccc(NC(=O)c2cccn(Cc3ccccc3C)c2=O)cc1,-1,-2
CC(C)(C)NCC(O)COc1cccc2[nH]c(C#N)cc12 (stereo not given),9,2
CC(C)(C)CC(C)(C)c1ccc(O)cc1,-20,-32
CCNc1nc(Cl)nc(NC(C)C)n1,-3,-11
COc1ccc(-n2cc(C3=CCN(Cc4c(C)noc4C)CC3)cn2)cc1,10,-7
CN1C(=O)C2(CCN(Cc3cc(-c4ccccn4)no3)CC2)c2ccccc21,6,4
CC1CCC2C(N1)c1ccccc1OC2(C)C (stereo not given),-2,-2
CCCN1CCC[C@@H]2Cc3nc(N)ncc3C[C@H]21,2,-24
COc1ccc(NP(=O)(OCC(F)(F)F)OCC(F)(F)F)cc1,6,4
C=C(C)c1cc2cc(C(C)=O)c(O)cc2o1,-8&4,-15&4
COc1ccc(CCN(Cc2ccc(C)o2)C(=O)CN(CCN2CCCC2)C(=O)Cc2ccccc2)cc1OC,2,8
S=P1(N2CCOCC2)C2=C(CCC2)C2=C(CCC2)N1c1ccccc1 (stereo not given),9,14
Cc1cc(P(=S)(N2CCOCC2)N2CCOCC2)c(C)n1-c1ccc(N(C)C)cc1,1,0
O=C(O)c1ccccc1-c1c2cc(Br)c(=O)cc-2oc2[c]([Hg])c(O)c(Br)cc12,60*,42*
O=C(NC(=O)c1c(F)cccc1F)Nc1ccc(Cl)cc1,4,-4
Cc1ncc(CNC(=O)N(CCCl)N=O)c(N)n1,-3&1,-9&-9
CC(Cc1ccc(O)cc1)NCC(O)c1cc(O)cc(O)c1 (stereo not given),30&44&10,23&32&-12
COc1c2c(cc3c1OCO3)CC[N+](C)=C2,3,3

Ordered by SMILES length (smallest number first): 4 of the compounds above
SMILES,NPYLR7 agonist,NPYLR7 agonist max-min
CCCN1CCC[C@@H]2Cc3nc(N)ncc3C[C@H]21,2,-24
COc1ccc(NP(=O)(OCC(F)(F)F)OCC(F)(F)F)cc1,6,4
COc1ccc(-n2cc(C3=CCN(Cc4c(C)noc4C)CC3)cn2)cc1,10,-7
CN1C(=O)C2(CCN(Cc3cc(-c4ccccn4)no3)CC2)c2ccccc21,6,4

Later entries:
SMILES,NPYLR7 agonist,NPYLR7 agonist max-min
CCN(CC)S(=O)(=O)N1CCC2(CCN(C)CC2)C1,-1,-3
O=c1oc2ccccc2c(O)c1C(c1ccc2c(c1)OCO2)c1c(O)c2ccccc2oc1=O,5,2
O=c1ccc(C2CCCCC2)c2n1C[C@H]1C[C@@H]2CN(C2CCOCC2)C1,-8,-17
Cc1ncsc1CCCl,-29,-32
CC[C@H]1CN2CCC1C[C@H]2[C@H](O)c1ccnc2ccc(OC)cc12 (stereo not given in full),-5,-9
COC(=O)C1=CO[C@@H](C)[C@@H]2CN3CC[C@]4(C(=O)Nc5c4ccc(OC)c5OC)[C@H]3C[C@H]12,4,1
C=CCn1cc(CN2CC[C@@H](c3cccc(OC)c3)[C@H](O)C2)c(C)n1,6,6
COc1ccc(Cl)cc1C=C1C(=O)N(C)C(=O)N(C)C1=O,10,8
CCN(CC)S(=O)(=O)c1ccc(Cn2nc(C(=O)NC(C)COC)c3ccccc32)cc1 (stereo not given),12,16
C[C@H]1OC(O[C@H]2[C@@H](O)CC(O[C@H]3[C@@H](O)C[C@H](O[C@H]4CC[C@]5(C)C6CC[C@]7(C)[C@@H](C8=CC(=O)OC8)[C@@H](O)C[C@]7(O)[C@@H]6CC[C@@H]5C4)O[C@@H]3C)O[C@@H]2C)C[C@H](O)C1O (stereo not given in full),4,-2
Cc1ccc(S(=O)(=O)N2CCN(CCOC(c3ccc(Cl)cc3)c3ccc(Cl)cc3)CC2)cc1Cl,28,18
COc1cc2c(cc1OC)[C@@]13CCN4CC5=CCOC6CC(=O)N2C1[C@H]6[C@H]5C[C@H]43 (stereo not given in full),-12,-19
COC(=O)c1cccc(CN(C)C(C)Cc2cc(C)ccn2)n1 (stereo not given),4,4
COc1ccc(-n2nc(C(C)(C)C)c3c2N(CC(=O)NCC2CCCO2)C(=O)CSC3c2cccs2)cc1 (stereo not given),10,19
COc1cc(C)c(-c2nc(CN3C[C@@H]4C[C@@H](C3)c3cccc(=O)n3C4)c(C)o2)cc1C,-4,-7
O=C(c1cccc2ccccc12)C1CCCN(Cc2ccccc2O)C1 (stereo not given),2,-1
CCOC(=O)c1cccc(C(OCCN2CCN(Cc3ccccc3OCC(=O)O)CC2)c2ccccc2)c1 (stereo not given),4,0
Fc1ccc(C(OCCN2CCN(Cc3ccc(Cl)o3)CC2)c2ccccc2)cc1F (stereo not given),13,18
C=CCOC(=O)C1=C(C)OC(=N)C(C(=O)OCC)C12C(=O)Nc1ccccc12 (stereo not given),17,16
COc1cc(OC)c(C2NCCc3[nH]cnc32)cc1OC (stereo not given),-2,-3
O=C(O)Cc1cnc[nH]1,-1,-22
COc1ccc(C(=O)N(Cc2cc(NC(=O)c3ccco3)ccc2N(C)C2CCN(C)CC2)CC(C)C)cc1,0,15
COc1nc(NCCC2=CCCCC2)nc(N2CC3CC(C2)c2cccc(=O)n2C3)n1 (stereo not given),-5,-9
COc1cc(C)c(-c2nc3ccccc3c(=O)n2-c2cccc(C)c2)cc1C,5,2
Cc1ccc([N+](=O)[O-])cc1NC(=O)c1cccn(Cc2cccc(C(F)(F)F)c2)c1=O,11,2
Cc1nc(-c2cccs2)cc([C@H]2CN3CC[C@H]2C[C@@H]3CNC(=O)Nc2cccc(C(F)(F)F)c2)n1,-9,-14
CC(C)(C)c1ccc(C2(N)CCCC2)cc1,0,651
Cc1noc(CNC(C)(C)Cc2ccc(Br)cc2)n1,2&7,1&8
CCCN1CCc2cccc3c2[C@H]1Cc1ccc(O)c(O)c1-3,0,-26
CC(C)c1nnc(CN2C[C@H]3CC=CC[C@H]3C2)o1,4,0
Cc1cccc(OCC(=O)N2CCN(Cc3nnnn3-c3ccccc3)CC2)c1,1,0
Cc1cccc(CNC(=O)C(C2CCCC2)N2CCN(C(=O)Cc3cccs3)CC2)c1 (stereo not given),-14,-5
Cc1cccc(Cn2cccc(C(=O)Nc3cc([N+](=O)[O-])ccc3C)c2=O)c1,-3,-2
CCN1CCN(C(=O)c2ccc(N3CCC(NC(C)Cc4ccccn4)CC3)cc2)CC1 (stereo not given),22,10
CCN(Cc1ccccc1)C(=O)c1cn(CC2CCCO2)cc(C(=O)NC2CCCCCCC2)c1=O (stereo not given),-1,-8
O=C(Cc1c[nH]c2ccccc12)N1C[C@H](O)[C@@H](N2CCOCC2)C1,6,4
CN1C(=O)C(=Cc2ccco2)C(=O)N(C)C1=O,-2&-3,-3&-5
CC1(C)Cc2cc(CNC(=O)c3cn(CC4CCCNC4)nn3)ccc2O1 (stereo not given),13,4
Cc1ccc(OCC(=O)N2CCN(C3CCSC3)CC2)cc1C (stereo not given),2,1
COc1ccccc1[C@H]1CN(C(=O)COC(C)C)[C@@H]2C3CCN(CC3)[C@H]12,1,2
CN1CCC(N(C)c2ccnc3c2c(=O)n(C)c(=O)n3C)CC1,6,-2
NCCSc1c[nH]c2ccccc12,-4,-11
COc1ccccc1CC(=O)N1CCN(Cc2cccc(-c3noc(-c4ccco4)n3)c2)CC1,3,0
CCOC(=O)C1C(=N)OC(C)=C(C(=O)OC(C)C)C12C(=O)Nc1ccccc12 (stereo not given),-2,-4
O=C1NC(=S)NC(=O)C1=C/C=C/c1ccco1,0,-7
Cc1ccc(/C=C2\C(=O)NC(=S)N(c3ccc(Cl)cc3)C2=O)o1,2,0
CCN(C(=O)CN(C)S(C)(=O)=O)C(C)Cc1ccc(OC)cc1 (stereo not given),11,9
CC(=O)NS(=O)(=O)c1ccc(NC(=O)c2cccn(Cc3ccc(Cl)cc3)c2=O)cc1,-1,-3
CCC(=O)N1CC(=O)Nc2ccccc2C1c1ccc(C)cc1 (stereo not given),2,1
COc1ccc(C2C[C@H]3CC[C@@H](C2)N3Cc2nc(-c3ccco3)oc2C)cc1 (stereo not given in full),-5,-9
n1[nH]nc2c1Nc1nonc1N2,-12,-18
CCOC(=O)[C@@H]1[C@H]2CN(C(=O)c3cc4ccccc4o3)CCN2C[C@H]1c1ccccc1,6,17
CC(C)(CO)N1CC1C(=O)OCc1ccccc1 (stereo not given),-12,-17
CC(C)(C)P(=S)(c1ccncc1)N1CCCCCC1 (stereo not given),-3,-5
C[C@@]12N[C@@H](Cc3ccccc31)c1ccccc12,1&-2,-3&-7
CCN(CC)C(=O)c1ccc(NC(=O)C=Cc2cc(Cl)c3c(c2)OCO3)cc1,3,1
c1cc2c(c(-c3cnn4cccnc34)c1)CCNC2,12,4
COc1c[nH]c(CN2C[C@H]3C[C@H](O)[C@H](O)C[C@H]3C2)cc1=O,25,14
COc1cc(OC)c(C2=CCN(Cc3ccc(C#N)cc3F)CC2)c(OC)c1,-1,-3
Cc1ccc(C2CNCC2CN2CCN(c3ccccc3)CC2)cc1 (stereo not given),25,9

Going on with the list:
SMILES | NPYLR7 agonist | NPYLR7 agonist max-min
CC(=O)Nc1ccc(S(=O)(=O)N2CCN(CCOC(c3ccccc3)c3ccc(F)c(F)c3)CC2)cc1 (stereo not given) | 5 | 1
CC(N)C(OC1CCOCC1)c1ccccc1 (stereo not given) | 5&7 | 3&5
COc1ccc(Cl)cc1S(=O)(=O)N1CCN(CCOC(c2ccc(F)cc2)c2ccc(F)cc2)CC1 | 5 | 3
C[C@]12CC[C@H](O)CC1=CC[C@@H]1[C@@H]2CC[C@@]2(C)[C@H]1CC[C@]2(C)O | -9 | -15
O=C(Nc1ccc2[nH]cc(CCN3CCCC3)c2c1)C(F)(F)C(F)(F)C(F)(F)F | 17 | 6
CN(C)CCN(C(=O)Cc1ccc(F)cc1)c1nc2ccccc2s1 | -5 | -7
CCN(CC)P(=S)(c1ccc(C=NNC(N)=O)s1)N(CC)CC | -4 | -5
CC(=O)NCCNC(=O)[C@H]1CN2CCC1C[C@@H]2Cn1cc(COc2ccccc2)nn1 (stereo not given in full) | 33 | 26
Cc1ccccc1-n1nc(-c2ccccc2)c2c1N(CC(=O)NCC1CCCO1)C(=O)CSC2c1ccsc1 (stereo not given) | 17 | 3
CC(Cc1cccc(F)c1)NCc1n[nH]c2c1CCC2 (stereo not given) | -4 | -11
CC(C)(C)c1ccc(C(CN)c2ccc(Cl)cc2)cc1 (stereo not given) | 9 | 8
COc1ccc(-n2cc(CNC(C)Cc3cnccn3)c(-c3cccc(F)c3)n2)cc1 (stereo not given) | -8 | -8
COC(=O)c1ccccc1NC(=O)c1cccn(Cc2ccc(C(F)(F)F)cc2)c1=O | 16 | 11
COc1cccc(CC(C)NCC(=O)Nc2ccccc2C)c1 (stereo not given) | 25 | 13
COc1cc(C=NNP(=S)(c2ccccc2)c2ccccc2)ccc1O | 16 | 6
Cc1cc(C)c(CNc2cc(C(C)C)nc(C)n2)cn1 | 3 | -1
COc1cc(C(=O)N2CCC3(CC2)CN(C)CCN3C)ccn1 | 0 | 13
CC1=C(C(=O)Nc2ccccc2)S(=O)(=O)CCO1 | 2 | -1
CCOC(=O)[C@H]1CN(C(=O)c2ccc(C)cc2)[C@]2(C)C(=O)N(C)c3ccccc3[C@H]12 | 15 | 27
COC(=O)C1=C(C)OC(=N)C(C#N)C12C(=O)Nc1ccc(Cl)cc12 (stereo not given) | -4 | -4
Cc1nn(-c2ccccc2)c2c1P(=S)(N1CCCC1)OC(c1ccc(Cl)cc1)=N2 (stereo not given) | -6 | -14
Cc1ccc(C2(O)C[N+]3=C(SCCC3)N2Cc2ccccc2)cc1 (stereo not given) | -5 | -7
C[C@H](Cc1ccc2c(c1)OC(C(=O)O)(C(=O)O)O2)NC[C@H](O)c1cccc(Cl)c1 | 6 | -10
c1ccc(CN2CCCC3CNCCC32)cc1 (stereo not given) | 0 | -5

2 entries drawn at random from those above, as already listed:
SMILES | NPYLR7 agonist | NPYLR7 agonist max-min
Cc1nn(-c2ccccc2)c2c1P(=S)(N1CCCC1)OC(c1ccc(Cl)cc1)=N2 (stereo not given) | -6 | -14
Cc1cc(C)c(CNc2cc(C(C)C)nc(C)n2)cn1 | 3 | -1

Going on with the list.
SMILES | NPYLR7 agonist | NPYLR7 agonist max-min
O=C(Cc1ccc2c(c1)OCO2)N1CCCC(N2CCN(c3ccc(F)cc3)CC2)C1 (stereo not given) | 9 | 4
COCCCNC(=O)C(C1CCCC1)N1CCN(C(=O)Cc2ccccc2)CC1 (stereo not given) | -6 | -7
C[C@]12C=CC(=O)C=C1CCC1C2CC[C@]2(C)C(=O)CCC12 (stereo not given in full) | -7 | -11
O=C(CN1CCOCC1)Nc1ccc(Br)cc1C(=O)c1ccccc1 | -2 | 10
CN1C(=O)C2(CCN(Cc3noc(-c4ccco4)n3)CC2)c2ccccc21 | 2 | 2
CN(C)CCN(C(=O)COc1ccc(Cl)cc1)c1nc2cc3c(cc2s1)OCO3 | -2 | -7
CN1C(=O)C(=Cc2ccc3c(c2)OCO3)C(=O)N(C)C1=O | 4 | 5
COc1ccc2c(c1OC)C(=O)O[C@@H]2[C@@H]1c2cc3c(cc2CCN1C)OCO3 | -16 | -19
CC(=O)n1cc(C=C2C(=O)NC(=O)NC2=O)c2ccccc21 | 4 | 6

Entries of single compounds from above.
Cc1ccc(S(=O)(=O)N2CCN(CCOC(c3ccc(Cl)cc3)c3ccc(Cl)cc3)CC2)cc1Cl as listed: NPYLR7 agonist: 28; NPYLR7 agonist max-min: 18
O=c1ccc(C2CCCCC2)c2n1C[C@H]1C[C@@H]2CN(C2CCOCC2)C1 as listed: NPYLR7 agonist: -8; NPYLR7 agonist max-min: -17

Source: PubChem BioAssay
